Assay outcomes from PubChem BioAssay.
motility = Vibrio cholerae motility inhibitors, OD read-out (AID 588778); Vibrio cholerae motility, OD read-out; higher % means a stronger effect; test concentration not given here; primary cut-off and reference of the scale not given here; strong numbers were not always called active; one-dose inhibition, %; IC50 in µg/mL for titrated hits; 10,000 tested, under 10 active; in the data active = confirmed in a dose series
motility viability = also measured in motility; calls as there; inhibition, %; measured here: bacterial viability at 10 ug/mL;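 higher means fewer living bacteria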
Active calls of the source: *.

The first 6 compounds, to show the layout:
SMILES | motility | motility viability
COc1ccc(Oc2coc3cc(OC(=O)c4cncc(Br)c4)ccc3c2=O)cc1 | -18% | -5
Cc1ccc(-c2cc(C(Cl)Cl)on2)cc1 | 26% | 7
COc1ccc(-c2cc(OC(=O)c3ccccc3F)c3c(C)oc(C)c3c(=O)c2)cc1 | 1% | 0
Cc1cc(C)n2nc3nc(N4CCOCC4)nc(-c4ccccc4)c3c2n1 | -4% | 2
COC(=O)c1sccc1NC(=O)NC1CCCCC1 | 10% | -2
CCCCn1c(=O)cc(O)c2ccccc21 | -6% | -3

This part in full, from the first entry:
SMILES | motility | motility viability
COc1ccc(Oc2coc3cc(OC(=O)c4cncc(Br)c4)ccc3c2=O)cc1 | -18% | -5
Cc1ccc(-c2cc(C(Cl)Cl)on2)cc1 | 26% | 7
COc1ccc(-c2cc(OC(=O)c3ccccc3F)c3c(C)oc(C)c3c(=O)c2)cc1 | 1% | 0
Cc1cc(C)n2nc3nc(N4CCOCC4)nc(-c4ccccc4)c3c2n1 | -4% | 2
COC(=O)c1sccc1NC(=O)NC1CCCCC1 | 10% | -2
CCCCn1c(=O)cc(O)c2ccccc21 | -6% | -3
Cc1cccc(NC(=O)c2ccccc2OC(C)C(=O)NC(c2ccccc2)c2ccccc2)c1C (stereo unspecified) | -23% | -14
O=S(=O)(NCc1ccco1)c1ccc(F)c(Cl)c1 | 8% | -2
N#CCSCC(=O)Nc1ccc(Br)cc1 | 5% | 5
O=C(COc1ccccc1Cl)c1ccc(OC(=O)c2ccccc2)cc1 | 2% | -1
O=C(Nc1ncc(Cc2ccc(C(F)(F)F)cc2)s1)c1ccc(-c2cccc([N+](=O)[O-])c2)o1 | -12% | -9
O=C(CSc1ccc(Cl)cc1)Nc1ccc(S(=O)(=O)N2CCCC2)cc1 | -3% | 14
O=C(CSc1nnc(-c2cccnc2)s1)NC1CCCCC1 | -10% | -6
Cc1cc(Cl)cc(Cl)c1OCCOc1ncnc2ccccc12 | 21% | -4
O=C(/C=C\c1ccccc1)Nc1cccc(-c2nc3ccccc3[nH]2)c1 | 4% | 2
COc1cc(/C=C(/C#N)c2ccc(Cl)cc2)ccc1OCC(=O)Nc1ccccc1 | -22% | -7
Cc1c(Cl)cccc1NC(=O)CSCC(=O)Nc1nc(-c2ccccc2)cs1 | -10% | -4
O=c1ccccn1Cc1ccc(Cl)cc1Cl | 15% | 3
CC(=O)Nc1cccc(C(=O)NCCc2nc3ccccc3[nH]2)c1 | 6% | 4
O=C(c1cnsn1)N1CCN(c2ccccn2)CC1 | -11% | 11
CCCC(=O)Nc1nc2ccc(NC(=S)NC(=O)CC)cc2s1 | 0% | -1
O=C(Cc1cccs1)NCc1ccccc1F | 37% | 14
O=S(=O)(c1ccc(I)cc1)N1CCN(C/C=C/c2ccccc2)CC1 | -7% | -2
CCn1c(O)c2ccc(C(=O)N=NC(=O)c3cccnc3)cc2c1O | 31% | 6
COc1ccc(OC)c2c(C)cc(N3CCN(C(=O)c4ccc(Cl)cc4)CC3)nc12 | -3% | -1
Cn1ncc(C#N)c1NC(=O)C1CC(c2c(F)cccc2Cl)=NO1 (stereo unspecified) | 16% | 11
CN(Oc1ccccc1)C(=O)COc1ccc2c(=O)c(-c3ccccc3)coc2c1 | 9% | 29
COc1ccc(NCc2cccnc2)cc1Cl | 8% | 1
CC(C)Cc1nc(SCC(=O)Nc2ccc(Br)cn2)n[nH]1 | 4% | 2
CCCNC(=O)Nc1ccc(Cl)c(C(=O)O)c1 | 11% | -3
COc1ccc(C(C)NC(=O)c2csc3ccccc23)cc1OC (stereo unspecified) | -2% | -1
COc1ccccc1CNC(=O)c1cnccn1 | 11% | 3
CC1(C)CC(O)(C#CC#CC2(O)CC(C)(C)NC(C)(C)C2)CC(C)(C)N1 | 24% | 5
Cc1c(-c2ccccc2)sc(Br)c1C(=O)N1CCOCC1 | -2% | -9
COC(=O)C1=C(C)NC(=S)NC1c1cc(OC)c(O)c(I)c1Cl (stereo unspecified) | 3% | 1
COc1ccc(NC(=S)Nc2ccccc2Cl)cn1 | -2% | 0
OCC12COC3c4ccccc4C(OC1)N32 (stereo unspecified) | -1% | 6
CCOc1ccc2nc(SCCC#N)nc(C)c2c1 | 7% | -1
CC1CCN(c2ccc(Nc3ncnc4ccccc34)cc2)CC1 | 64% | 18
Cc1cc(C)nc(-n2nc(C)cc2Nc2ccccc2)n1 | 5% | 22
CCCC12CN(C(=S)Nc3ccccc3)CC(C)(CN(C(=S)Nc3ccccc3)C1)C2=O | 1% | -6
CCSc1nnc(-c2ccc(C)c(NC(=O)c3ccc(F)cc3)c2)c2ccccc12 | -16% | 4
O=C(COc1ccc(Br)cc1)N1CCN(S(=O)(=O)c2ccc(F)cc2)CC1 | 1% | -6
O=C(Nc1ccccc1Cl)c1ccccc1Nc1nc(-c2ccc([N+](=O)[O-])cc2)cs1 | -8% | -3
CC(C)C(NC(=O)c1cccs1)C(=O)Nc1ccc(Cl)cc1 (stereo unspecified) | 10% | 0
O=C(NNC(=O)C(F)(F)F)c1ccc(NC(=O)c2ccccc2)cc1 | -11% | -5
Cc1ccccc1C(=O)NN1C(=O)CSC1=S | 2% | -2
CCC(C)(C)c1ccc2c(C(N)=O)csc2c1 | -18% | -10
COC(=O)c1ccccc1NC(=O)NNC(=O)c1ccco1 | -8% | -6
CCN(CC#CCCOC(C)=O)c1ccccc1 | -9% | -8
CC(Cc1ccccc1)N=C(N)/C(C#N)=C\c1[nH]c2ccccc2c1O (stereo unspecified) | 0% | 4
COc1ccccc1NC(=O)c1cc[n+]([O-])cc1 | -36% | -13
Fc1ccccc1CSc1nc2ncc(Br)cc2[nH]1 | -9% | -2
Cc1ccc(-c2ccc(Br)cc2)n1-c1ccc(N2CCOCC2)cc1 | -22% | -4
CC1=CCC(C(=O)O)C(C(=O)Nc2ccccc2NC(=O)c2ccc(C(F)(F)F)cc2)C1 (stereo unspecified) | 3% | 1
O=C(NCCc1ccccc1)c1ccc(CSc2ccccc2)o1 | 16% | 4
CCCc1cc(C(N)=O)c(NC(=O)C2CCCO2)s1 (stereo unspecified) | 13% | 3
CCC(C)(C)NS(=O)(=O)Cc1ccccc1 | 11% | -1
Cc1ccc(-c2cc(-c3ccccc3)c(C#N)c(SCC3(O)CCCCC3S(C)=O)n2)cc1 (stereo unspecified) | 4% | 2
CCS(=O)(=O)c1nc2ccccc2n1C | -1% | 10

One compound at a time, as listed above:
Cc1ccccc1C(=O)NN1C(=O)CSC1=S is listed as motility = 2%; motility viability = -2
COc1ccccc1NC(=O)c1cc[n+]([O-])cc1 is listed as motility = -36%; motility viability = -13
Cc1ccc(-c2ccc(Br)cc2)n1-c1ccc(N2CCOCC2)cc1 is listed as motility = -22%; motility viability = -4

Further entries follow.
SMILES | motility | motility viability
C=C(C)Cn1c(CCn2c3ccccc3c3ccccc32)nnc1SCC(=O)OC | 14% | 6
Cn1nnnc1SCc1ccc(C(=O)Nc2ccc(Br)cc2)cc1 | 2% | 6
Cc1ccc2cccc(OCc3ccc(S(=O)(=O)Cc4ccccc4)cc3)c2n1 | -5% | -1
COc1ccc(Cl)cc1NC(=O)Nc1ccc(C(C)=O)cc1 | 10% | 5
Cc1ccc(-c2cc(C(F)(F)F)n3nc(C(=O)Nc4ccon4)cc3n2)cc1C | 13% | 3
Nc1nnc(SCC(=O)NCCOc2ccc(Cl)cc2)s1 | -8% | -2
N#C/C(=C\C=C\c1ccccc1)c1ccc(C#N)cc1 | -15% | -5
CCOC(=O)N1CCN(c2nc(C(F)(F)F)nc3c(C)cc(C)cc23)CC1 | 0% | -1
CC(=O)Nc1ccc(NC(=O)CN(c2cccc3ccccc23)S(C)(=O)=O)cc1 | -5% | 2
O=S(=O)(NCC1OCCc2ccccc21)c1ccccc1 (stereo unspecified) | 29% | -1
CCC1C(C#N)=C(N)SC2=C1C(=O)c1ccccc12 (stereo unspecified) | -28% | -12
COC(=O)NC1c2ccccc2Oc2ccc(OC)cc21 (stereo unspecified) | -13% | -7
CCOCCCNC(=O)c1cccc(F)c1 | 13% | -4
N#Cc1cccc(Oc2ccc([N+](=O)[O-])cc2)c1C#N | 66% | 23
CS(=O)(=O)N(Cc1ccc(C(=O)O)cc1)c1cccc(Cl)c1Cl | 1% | -4
COc1ccc(OCC(=O)N=Nc2c(O)[nH]c3c(Br)cc(C)cc23)c(Br)c1 | 24% | 11
O=S(=O)(Nc1ncccn1)c1ccccc1 | -42% | -12
COc1cc2c(cc1NC(=O)C(=O)NCCCN1CCOCC1)oc1ccccc12 | 10% | 12
Cc1nc(SCCS(=O)(=O)Cc2ccccc2)c(C#N)c(-c2ccccc2)c1C(=O)Nc1ccccc1 | -6% | 18
O=c1nc(/C=C/c2cccn2-c2ccc([N+](=O)[O-])cc2)cc(C(F)(F)F)[nH]1 | 10% | -1
Cc1cc(Br)cc(C)c1NC(=O)c1c(F)c(F)c(F)c(F)c1F | 16% | 1
Cc1nn(Cc2cccc(Oc3ccccc3)c2)c(C)c1NC(=O)c1nc2ncccn2n1 | 4% | 2
O=C(c1ccccc1Br)N(Cc1ccc(Cl)cc1)C1CCS(=O)(=O)C1 (stereo unspecified) | 2% | -2
COc1cccc2cc(-c3csc(Nc4ccccc4C(F)(F)F)n3)c(=O)oc12 | -7% | -5
CC1CN(C(=O)C23CC4CC(CC(C4)C2)C3)C(C)CN1C(=O)C12CC3CC(CC(C3)C1)C2 (stereo unspecified) | -6% | -4
O=C(Nc1ccc(S(=O)(=O)Nc2nccs2)cc1)c1cc2c(s1)CCCC2 | -27% | -9
O=C(CC(=O)c1ccc([N+](=O)[O-])cc1)c1ccccc1 | 45% | 44
Cc1nc2ccc(NC(=O)NCc3ccco3)cc2s1 | 6% | 1
O=C(CSc1nc2ccccc2s1)C1CC1 | 15% | 0
Nc1nnc(CSCc2cccc(Br)c2)s1 | 21% | 4
O=C(c1ccc(Br)s1)N1CCc2ccccc21 | -10% | -8
Cc1ccc(C(=O)N/C(=C\c2cn(-c3ccccc3)nc2-c2ccc(F)cc2)C(=O)NCc2cccnc2)cc1 | -6% | -2
Cc1ccc(N2C(S)=C(C#N)C(=O)NC23CCCCC3)cc1 | -4% | 3
CC(=O)Oc1cccc(C(=O)Nc2ccc(NC(=O)c3ccco3)cc2)c1 | 13% | 24
CN(c1cccc2cccnc12)S(=O)(=O)c1ccccc1 | 0% | 0
O=C1C2C3c4ccccc4C(c4ccccc43)C2C(=O)N1c1nnc(-c2cccc([N+](=O)[O-])c2)s1 (stereo unspecified) | -10% | 2
CCC(NC(=O)c1ccccc1I)c1ccccc1 (stereo unspecified) | -15% | -12
N=C(N=C(N)N)N1CCCc2ccccc21 | -2% | -1
COc1ccc(C(=O)NCc2ccco2)cc1I | 17% | 32
Cc1ccccc1Cn1nc(C)c(NC(=O)c2oc3ccccc3c2C)c1C | -2% | -3
Cc1nn(C)cc1CN(C)C(=O)c1sc2cccc(Cl)c2c1Cl | 1% | -1
N#Cc1c(N)sc2c1CCN(C(=O)OCc1ccccc1)C2 | -9% | -2
CC1CN(C(=O)c2ccncc2)C(C)CN1C(=O)c1ccncc1 (stereo unspecified) | 3% | -1
CC(=O)NC(NC(C)=O)c1cccc(Oc2ccccc2)c1 | -21% | 0
CCOC(=O)CC(=O)CSCC(=O)Nc1ccc(C)cc1 | 0% | -4
Cc1cccc(NS(=O)(=O)c2cc([N+](=O)[O-])ccc2C)n1 | 0% | 15
CCOc1ccccc1OCCOCCNC(C)CC (stereo unspecified) | 4% | -8
O=C(Nc1cc2c(cc1C(=O)c1ccccc1)OCCO2)c1ccccc1F | 1% | -5
Cc1cc2[nH]c(=S)n(Cc3ccccc3Cl)c2cc1C | -27% | -13
CCC(=O)N(CCCNC(=O)C(F)(F)F)c1ccc([N+](=O)[O-])cc1 | 7% | 11
O=C(NCCc1c[nH]c2ccccc12)c1ccc(COc2c(F)c(F)cc(F)c2F)o1 | 8% | 3
COc1ccc(S(=O)(=O)N(C)CC(=O)O)cc1OC | -10% | -9
CN(C)S(=O)(=O)c1cc(C(=O)NCCc2c[nH]c3ccccc23)c(Cl)cc1Cl | 2% | 0
CCC(Sc1n[nH]c(N)n1)C(=O)Nc1ccccc1C#N (stereo unspecified) | -3% | -2
c1ccc(CCc2ccccc2-c2nc(-c3ccncc3)no2)cc1 | -5% | -3
N#C/C(=C/c1cccs1)c1cccc([N+](=O)[O-])c1 | 7% | 27
CC(=O)c1c(C)nc(C)nc1NC(=O)Cc1ccccc1 | -14% | -7
O=C1CCCN1CCCNC(=S)NCC1CCCO1 (stereo unspecified) | -11% | -8
O=c1[nH]c(SCCOc2cccc3ccccc23)nc2ccccc12 | -23% | -6
Cc1cc(F)ccc1S(=O)(=O)Nc1ccc(I)cc1 | 9% | -5
Further structures
SMILES | motility | motility viability
O=C(O)C1C2C=CC(O2)C1C(=O)Nc1ccc2c(c1)OCO2 (stereo unspecified) | 15% | 23
O=C(Cn1nnc2ccccc21)c1ccc(Br)cc1 | -1% | -3
Cn1cc(I)c(C(=O)NNC(=S)NCc2ccco2)n1 | 10% | 1
Cc1nn(C(=O)CCCC(=O)n2nc(C)c(Cl)c2C)c(C)c1Cl | -6% | -5
O=C(Nc1ccccc1-c1nc2ccccc2[nH]1)c1ccc(S(=O)(=O)N2CCCCC2)cc1 | -15% | -8
Cc1c(-c2ccccc2)nc2ccccc2c1C(=O)Oc1ccc([N+](=O)[O-])cc1 | -12% | 4

This is a subset; the hit share may differ from the screen's.
